# Bioassay records: PubChem BioAssay, National Center for Advancing Translational Sciences (NCATS)
# Menin MLL FP FL – qHTS Assay for Inhibitors Targeting the Menin-MLL Interaction in MLL Related Leukemias: Competition With Fluorescein Labeled MLL-derived Peptide; Fluorescence polarization, fluorescein-MLL peptide displacement from menin; FP activity change, % at 61.4 µM; 290,000 tested, under 10 active; inconclusive = falling polarisation curve, or a change in total fluorescence; inactive = total fluorescence flat and polarisation flat or rising; no compound was filed as active; the % refers to the polarisation; negative = inhibition;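 further: % of control where 0% means no effect; inhibitors lower the polarisation; unlabelled MLL peptide was the positive control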
# gsp antagonist – qHTS for Antagonists of gsp, the Etiologic Mutation Responsible for Fibrous Dysplasia/McCune-Albright Syndrome: qHTS; gsp-mutant cells, cAMP HTRF, 30 min; control for the full effect not named in the record; Potency, µM (doses to about 76.9 µM), inactives show top-dose activity change, negative = inhibition, hits mostly inhibitors; 0.4% of 340,000 active; active = falling curve of any shape with a large fitted effect; inconclusive = falling curve, mostly with a smaller effect; inactive = flat or rising curve; cell line not stated here;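 further: intracellular cAMP measured with PDE inhibitor Ro 20-1724 present during compound exposure; potency means the concentration at half of the fitted maximal effect; on the % scale 0 is the no-effect control and ±100 the full control effect; nearly all actives have a fitted effect of over 65% in size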
#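 G418-selected cells were plated in DMEM/10% FBS for 16-24 h at 37C, then treated with compounds plus the PDE inhibitor […] (300 uM solution added) for 30 min at 37C. Intracellular cAMP was measured by HTRF after 30 min lysis at room temperature.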
# TRPV1 potentiator – HTS Assay for Compounds that Act as Potentiators of the Vanilloid Receptor 1; 0.02% of 320,000 active; AID 540277, 2011; TRPV1-expressing cells, Fluo-8 calcium influx, capsaicin EC20 potentiation; host cell line not named in the record; control for the full effect not named in the record; Transient receptor potential cation channel subfamily V member 1 (Homo sapiens), Q8NER1; potentiation, % at 8.33 µM; active means potentiation above 80%; inconclusive means 30% to 80%; inactive means below 30%; further: 0% is about no effect
#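 Fluo-8 calcium influx in TRPV1-expressing cells, kinetic read (ex 480/em 520 nm). Compound added and read 3 min for agonist activity, followed by capsaicin at EC20 final and 2 min further read for enhancement.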
# ClpP mod – qHTS Assay for Activators of ClpP; Potency, µM (top dose mostly 57.5 µM), inactives show at the highest dose activity change, negative = active; ATP-dependent Clp protease proteolytic subunit (Bacillus subtilis (strain 168)), P80244; 1.9% of 340,000 active; purified B. subtilis ClpP, FRET peptide cleavage, 20 min; active = well fitted falling curve with a large enough effect; inconclusive = small, poorly fitted or top-dose-only effect; inactive = no such curve, though single readings can be large or run the other way; further: potency means the concentration at half of the fitted maximal effect; the source files actives as falling curves though it sought activators and does not explain the sign; nearly all actives have a fitted effect of over 65% in size; many hits overshoot -100%
# Target sequence (P80244 whole entry, looked up): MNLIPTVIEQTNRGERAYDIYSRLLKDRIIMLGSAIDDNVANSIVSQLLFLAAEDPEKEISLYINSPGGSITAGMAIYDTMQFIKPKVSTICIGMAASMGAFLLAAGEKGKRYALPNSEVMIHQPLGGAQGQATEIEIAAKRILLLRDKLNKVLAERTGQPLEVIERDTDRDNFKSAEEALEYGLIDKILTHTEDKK
#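 Buffer: 100 mM Tris/HCl pH8, 100 mM KCl, 0.05% low protease BSA, 2.5% glycerol, 0.01% Tween-20. ClpP 10 microg/mL final; 20 min RT; delta FRET normalized to ADEP and DMSO controls.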
# Sfp PPTase inh – qHTS Assay for Inhibitors of Bacillus subtilis Sfp phosphopantetheinyl transferase (PPTase) | Biochemical Sfp PPTase activity, qHTS | Potency, µM, without a hit: max response, negative = inhibition, actives largely listed as inhibitors | 3.5% of 310,000 active; active means well fitted inhibition curve with a large enough effect; inconclusive means small, poorly fitted or top-dose-only effect, or another doubt; inactive means no such curve, though single readings can be large or run the other way;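 further: the enzyme is Sfp with the accession as filed and its product quenches rhodamine fluorescence; potency means the concentration at half of the fitted maximal effect; 0% = enzyme reaction without inhibitor and -100% = no enzyme wells; top concentration of the series not given in the record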
#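 Sfp 15 nM + cpd, 15 min RT; start w/ rhodamine-CoA 5 uM, BHQ-2-YbbR 12.5 uM (final); 50 mM Hepes pH 7.6, 10 mM MgCl2, 0.01% NP-40, 0.01% BSA; read 525/598 nm at 0 and 30 min.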
# D2 potentiator – Beta-Arrestin HTS for Positive Allosteric Modulators of the Human D2 Dopamine Receptor: Potentiators; 0.23% of 360,000 active; DiscoveRx D2 beta-arrestin cells, luminescence, 90 min; 100% = 57 uM dopamine signal; D(2) dopamine receptor (Homo sapiens), P14416; potentiation, % (concentration not given with the values); AID 624464, 2012; active = potentiation of 50% or more; inconclusive = 30% to 50%; inactive = 30% or less;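 further: compound concentration not given in the record; tested on top of an EC20 dose of dopamine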
# Target sequence (P14416 whole entry, looked up): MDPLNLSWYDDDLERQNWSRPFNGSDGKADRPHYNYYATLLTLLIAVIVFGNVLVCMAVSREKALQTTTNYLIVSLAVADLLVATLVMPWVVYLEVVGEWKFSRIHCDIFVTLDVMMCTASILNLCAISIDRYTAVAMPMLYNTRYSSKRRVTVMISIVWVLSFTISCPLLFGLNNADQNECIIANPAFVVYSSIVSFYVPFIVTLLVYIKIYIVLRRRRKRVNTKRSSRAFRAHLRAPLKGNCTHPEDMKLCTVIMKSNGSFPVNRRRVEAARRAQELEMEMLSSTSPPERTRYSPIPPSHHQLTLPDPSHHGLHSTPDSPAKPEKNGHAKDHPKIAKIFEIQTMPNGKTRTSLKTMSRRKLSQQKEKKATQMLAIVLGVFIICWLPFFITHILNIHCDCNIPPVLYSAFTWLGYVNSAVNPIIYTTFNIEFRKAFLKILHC
#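 D2 cells co-treated with compound plus 50 nM dopamine (EC20) for 90 min at 37 deg C to detect potentiation. Beta-arrestin recruitment was read as enzyme-fragment luminescence after 1 h at ambient temperature. Full response was set by 57 uM dopamine.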
# gsp ag – qHTS for Agonist of gsp, the Etiologic Mutation Responsible for Fibrous Dysplasia/McCune-Albright Syndrome: qHTS | gsp mutant cells, cAMP HTRF, 30 min; control for the full effect not named in the record | Potency, µM (titrated, usually from 76.9 µM), inactives show at the top dose activation (cAMP increase), actives largely listed as activators | 0.13% of 340,000 active | AID 624287, 2012; active = well fitted activation curve with a large enough effect; inconclusive = small, poorly fitted or top-dose-only effect, or another doubt; inactive = no such curve, though single readings can be large or run the other way; cell line not stated here;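 further: phosphodiesterase inhibitor Ro 20-1724 added with compounds to block cAMP breakdown; potency means the concentration at half of the fitted maximal effect; nearly all actives have a fitted effect of over 60% in size; about a fifth of the inactives were tested at one dose only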
#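 Cells in DMEM/10% FBS with G418 were pretreated with compounds in DMSO plus […] (300 uM stock) for 30 min at 37C. cAMP was measured by HTRF (cAMP-d2 plus anti-cAMP antibody-K) after 30 min at room temperature.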
# Starred values were filed as active, the others as inactive; ? = inconclusive; . = not tested or not shown; & = joins results of further samples; [ ] = another dose, or the depositor's remark. Rows are unselected; overall some 5.1% were active at least once.
SMILES,Menin MLL FP FL,gsp antagonist,TRPV1 potentiator,ClpP mod,Sfp PPTase inh,D2 potentiator,gsp ag
Cc1cc(SCC(=O)Nc2ccc3[nH]c(=O)[nH]c3c2)nc2ccccc12,.,-16%,.,1.1%,.,-17,-2%[15.4 µM]
COCCN=C1Sc2nc3cc4c(cc3cc2CN1CC1CCCO1)OCO4 (stereo not given),-0.8,17%,9,0.2%,1%,0,?
COc1ccc(C(=O)/C=C/c2ccc(N3CCCCC3)c([N+](=O)[O-])c2)cc1,0.4,-12%,?,-6.4%,15%,0,7%
N#Cc1c(-c2ccco2)nc(SCC(=O)Nc2ccc(S(N)(=O)=O)cc2)[nH]c1=O,2.1,.,2,.,8%,.,.
CCOc1ccc(NC(=O)COC(=O)Cn2nc(C)c([N+](=O)[O-])c2C)cc1OCC,.,-12%,.,-4.3%,.,-14,21%
C=CCOC(=O)C(C#N)c1nc2ccccc2nc1N1CCCC1 (stereo not given),23,-7%,-11,-5.1%,-3%,-6,0%
O=c1cc(-c2ccc(O)c(O)c2)oc2cc(O[C@@H]3O[C@H](CO)[C@@H](O)[C@H](O)[C@H]3O)cc(O)c12,2.9,-2%,.,0.5%,-8%,-8,-24%
CCSc1nnc(NC(=O)C2CC2c2ccccc2)s1 (stereo not given),4.8,11%,9,-16%,-5%,28,7%
Cc1ccc(C2=NS(=O)(=O)N(C)C(C(=O)Nc3cc(C)n(CC(=O)N4CCC(C)CC4)n3)=C2)cc1,-0.5,-18%,-12,1.1%,12%,5,-51%[inhibitor]
CCOC(=O)Cc1csc(NC(=O)CS(=O)(=O)Cc2ccccc2)n1,1.9,?,4,8.9%,2%,1,8%
CSCCC(NC(=O)c1ccccc1Br)C(=O)NCCCn1nc(C)cc1C (stereo not given),.,8%,12,.,.,5,-7%[15.4 µM]
O=C(NCc1ccccn1)C(=O)NN=C1CCCCCCCCCCC1,-0.8,4%,2,.,6%,-3,-18%
Cc1ncc([N+](=O)[O-])n1CCOC(=O)C12CC3CC(CC(C3)C1)C2,-2.4,.,-20,.,15%,-11,-6%[15.4 µM]
CCOc1ccc2nc(NC(=O)c3ccccn3)sc2c1,1.0,12%,3,.,23%,-4,-11%[15.4 µM]
CCc1ccc(NC(=O)CSc2nc(=O)n(CCCN3CCOCC3)c3c2CCC3)cc1,.,5%,-2,?,.,-12,4%
O=C(CSc1nc(N2CCOCC2)nc(N2CCOCC2)n1)Nc1ccccc1F,-3.0,10%,-13,1.2%,-3%,-13,-3%[15.4 µM]
CC1CN(Cc2nc3c(c(=O)n(C)c(=O)n3C)n2Cc2ccccc2)CC(C)O1 (stereo not given),-0.6,11%,0,0.6%,9%,-3,3%
C(=NOCCc1ccccc1)c1ccccn1,.,8%,.,.,.,-2,-16%
COc1ccc(F)cc1C(=O)C1CCCN(C(=O)c2ccc(C(C)=O)s2)C1 (stereo not given),-1.3,6%,-14,-13%,10%,-17,22%
O=C1/C(=C/c2ccccc2)CCC1C1CCCC1 (stereo not given),4.8,10%,8,-4.0%,-2%,-28,-2%[15.4 µM]
O=C(NCc1ccccn1)c1ccc(Br)s1,-0.1,6%,0,-2.2%,22%,-11,-4%
CC1CCN(C(=O)COc2cccc3c2CCN(Cc2ccccc2)C3=O)CC1,0.1,-3%,-6,.,4%,6,-4%
CC(C)(C)c1ccc(CSc2nc(N)cc(=O)[nH]2)cc1,1.0,-8%,-9,-0.9%,-11%,2,-16%[15.4 µM]
COC(=O)CCN(C(=O)c1ccc(OC(C)=O)cc1)c1ccccn1,1.4,16%,6,-0.2%,13%,-8,-10%
CCCC1c2ccc(C)n2CCN1C(=O)Nc1ccc(F)cc1 (stereo not given),?,4%,-23,?,2%,-11,?
CCn1c(CC(=O)Nc2cccc(OC)c2)nnc1SCC(=O)N1CCN(c2ccccc2)CC1,2.7,-1%,-14,-2.9%,11%,0,-9%
Clc1ccc(CSc2nncn2-c2ccccn2)cc1,0.7,2%,23,1.3%,2%,-5,-28%
Cc1cccc(C)c1OCCSc1n[nH]c(N)n1,0.5,-6%,-2,0.7%,16%,-3,-4%
Cc1ccccc1NC(=S)NCCc1ccccn1,-0.7,10%,-1,-3.4%,-3%,-2,17%
CCOc1ccc(CN2CCN(Cc3cnc(-c4ccccc4)s3)CC2CCO)cc1 (stereo not given),-3.4,6%,13,-3.5%,12%,-4,26%
O=C(OC(C(=O)NCC1CCCO1)c1ccccn1)c1cccs1 (stereo not given),-0.3,2%,4,0.4%,14%,-2,-20%
Nn1c(SCC(=O)Nc2nccs2)nnc1C1CC1,6.5,9%,2,-3.4%,-16%,-9,7%
CCOc1ccc(S(=O)(=O)n2cc(-c3ccc(F)cc3)c(N)n2)cc1,-2.2,-9%,-2,-1.5%,16%,-2,-7%
O=C(CCN1CCN(c2ccccc2F)CC1)Nc1cccc(F)c1,-0.4,9%,-11,0.8%,5%,-5,-23%
O=C(c1ccco1)N1CCCC(Nc2ccc3c(c2)OCCO3)C1 (stereo not given),.,-3%,-25,-0.9%,11%,-9,0%
CC1Cc2cc(S(=O)(=O)N3CCN(c4ccccc4F)CC3)ccc2N1C(=O)C1CC1 (stereo not given),1.3,1%,11,-1.8%,11%,-2,?
O=C(c1cc(S(=O)(=O)N2CCOCC2)c(Cl)cc1Cl)N1CCCCC1,-0.1,-9%,-7,-2.1%,-6%,2,-70%[inhibitor]
COc1cc(N=Nc2cccc(S(N)(=O)=O)c2)c2ccccc2c1N,?,-37%,22,.,?,-4,15%
Cc1cc(C)nc(N2CCC(C(=O)NCc3cccs3)CC2)n1,1.5,7%,-6,-23%,-1%,-5,8%
CCCCn1c(C)cc(/C=C(\C#N)C(=O)O)c1C,2.7,-11%,2,-5.5%,10%,-15,-2%
CCc1nn(C(C)C(=O)NCCc2ccc(OC)c(OC)c2)c(=O)c2cc3occc3n12 (stereo not given),-0.3,-3%,-9,-0.9%,11%,18,3%
CC(C)COc1cccc(C(=O)NC(=S)Nc2cccc(NC(=O)c3ccccc3Cl)c2)c1,-1.3,-1%,5,-3.4%,32%[activator],-9,27%
CC(=O)Nc1cc(S(=O)(=O)Nc2cccc(C)c2)c(C)cc1C,5.8,-10%,10,1.9%,12%,7,2%
CSc1nnc(Cc2cc(=O)[nH]c(=O)[nH]2)n1-c1cc(C)ccc1C,-7.0,9%,?,-0.8%,8%,-7,?
O=C(Nc1cc(C(F)(F)F)cc(C(F)(F)F)c1)Nc1cnn(-c2ccc([N+](=O)[O-])cc2)c1C(F)(F)F,0.6,9%,-1,.,8%,-2,29%
CSc1n[nH]c(/N=C/c2oc(O)c3ccccc23)n1,-1.3,1%,-5,.,-5%,-10,-28%[15.4 µM]
O=C(Nc1ccc(Cc2ccc(NC(=O)C3CC3)cc2)cc1)C1CC1,-1.5,9%,1,1.7%,12%,-6,2%
COC(=O)c1ccc(CN(C(=O)N2CCN(C)CC2)S(=O)(=O)c2ccc(C)cc2)cc1,.,-9%,-1,-3.9%,.,-7,-6%[15.4 µM]
CN(C)c1ccc(/C=N/NC(=O)CCc2nc3ccccc3[nH]2)cc1,5.0,-14%,7,4.3%,-8%,-9,-36%[inhibitor]
COc1cc(C(=O)NCC(=O)NNC(=O)CN(C)S(=O)(=O)c2ccc(Cl)cc2)cc(OC)c1OC,.,4%,.,.,.,-6,5%[15.4 µM]
CCOc1ccc(C(=O)CCC(=O)Nc2ccncc2)cc1,.,5%,-14,-2.0%,.,-4,2%
Cc1ccc(N2C(=O)CS(=O)(=O)CC2=O)cc1,5.7,-2%,-10,.,7%,5,6%
CCCOC(=O)c1ccc(Cl)c(NC(=O)c2cccnc2)c1,-3.6,.,2,.,9%,.,.
O=C(NCCF)[C@H]1C[C@@H]1[C@H](NP(=O)(c1ccccc1)c1ccccc1)c1ccccc1,4.5&-4.0,1%,-7,0.3%,0%&20%,-4,-17%
O=C(COc1ccc(Cl)cc1Cl)N1CCCC1,1.6,-2%,7,-0.3%,10%,-20,11%
Cc1c(N)ccc(-n2nc3ccccc3n2)c1C,.,-10%,.,.,.,-8,4%[15.4 µM]
Cc1cccc(C(C)Nc2ccc([N+](=O)[O-])cn2)c1 (stereo not given),-1.5,-4%,.,-3.1%,-5%,-5,2%
COC(=O)c1ccc(NC(=O)CN2CCN(c3cccc(Cl)c3)CC2)cc1,6.5,-7%,-1,-1.7%,16%,-16,-35%[inhibitor]
CCOC(=O)C1(c2nc(N)cs2)COC(=O)C1 (stereo not given),1.8,10%,7,-0.1%,-15%,-9,0%
CCCCOc1ccc(NC(=O)C(=O)NCCCn2ccnc2)cc1,-0.4,4%,-4,2.2%,2%,-8,13%

# The list goes on:
SMILES,Menin MLL FP FL,gsp antagonist,TRPV1 potentiator,ClpP mod,Sfp PPTase inh,D2 potentiator,gsp ag
COc1ccc(C(=O)Nc2nc(-c3ccccn3)cs2)cc1S(=O)(=O)N1CCOCC1,.,?,.,-4.6%,.,-6,18%
Cc1ccccc1N(C(=O)CNC(=O)c1ccco1)C(C(=O)NC1CCCCC1)c1ccncc1 (stereo not given),4.6,5%,14,.,8%,-5,-23%
COc1ccccc1NS(=O)(=O)c1ccc(NC(=O)N2CCCCC2)cc1,.,-6%,-25,-1.1%,1%,-1,-2%
CC1CC1c1ccc(/C=C(\C#N)C(=O)Nc2ccccc2Cl)o1 (stereo not given),2.8,-2%,-6,0.2%,-3%,-8,-40%[inhibitor]
